Rango-impB inh: prevents formation of the Rango-importin beta complex; Q14974; 0.031% of 340,000 active; Rango CFP/YFP FRET sensor + importin beta, 45 min; Potency, µM (titrated, usually from 92.2 µM), without a hit: top-dose inhibition of complex formation; active = rising FRET ratio curve, often small or poorly fitted; inconclusive = mostly compound fluorescence or quenching in the first reads; inactive = flat curves in all reads;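 also: potency is read from the fitted curve at half-maximal effect; 0% = DMSO wells and 100% = buffer wells lacking importin beta; nearly all actives have a fitted effect of over 15% in size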
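Inhibition scored from the CFP 486 nm/YFP 530 nm FRET ratio 45 min after adding 0.125 microM importin beta to 50 nM Rango biosensor preincubated 5 min with compound (room temperature, PBS with DTT, Tween-20, BSA). No-importin wells as positive control.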
Rango dissoc inh: inhibitors of RanGTP-induced Rango-importin beta complex dissociation | Potency, µM (series often up to 46.1 µM), for the others: at the top dose activity change, negative = inhibition | 0.071% of 340,000 active | Biochemical FRET Rango-importin beta, RanGTP-induced dissociation | O95149+P62826; active means falling FRET ratio curve, often poorly fitted, with flat reads before Ran was added; inconclusive means other falling curves, or compound fluorescence or quenching; inactive means flat or rising ratio curve;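 also: potency is read from the fitted curve at half-maximal effect; % of control where 0% means no effect; nearly all actives have a fitted effect of over 45% in size; -100% = wells without RanGTP and RCC1; the record marks most hits as doubtful in a second field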
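Two FRET readings bracket the reaction: one 5 min after compound meets Rango–importin beta, another 45 min after RanGTP-RCC1 (0.6 uM Ran, 0.2 uM RCC1, 2 mM GTP) is added. Only the second defines inhibition.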
GLA inh pH 4.5: blocks human alpha-galactosidase A at pH 4.5. purified enzyme, 4-MU-alpha-Gal fluorescence, pH 4.5. AID 1467. 230,000 tested, under 10 active. activity change, negative = inhibition, % at 105 µM; inconclusive = small, poorly fitted or top-dose-only inhibition, or a rising curve; inactive = flat fitted curve, though single readings scatter; no compound was filed as active;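 also: 0% = full activity with enzyme and -100% = basal without enzyme; dose as in the result columns while the protocol names 77 µM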
Target sequence (P06280 whole entry, looked up): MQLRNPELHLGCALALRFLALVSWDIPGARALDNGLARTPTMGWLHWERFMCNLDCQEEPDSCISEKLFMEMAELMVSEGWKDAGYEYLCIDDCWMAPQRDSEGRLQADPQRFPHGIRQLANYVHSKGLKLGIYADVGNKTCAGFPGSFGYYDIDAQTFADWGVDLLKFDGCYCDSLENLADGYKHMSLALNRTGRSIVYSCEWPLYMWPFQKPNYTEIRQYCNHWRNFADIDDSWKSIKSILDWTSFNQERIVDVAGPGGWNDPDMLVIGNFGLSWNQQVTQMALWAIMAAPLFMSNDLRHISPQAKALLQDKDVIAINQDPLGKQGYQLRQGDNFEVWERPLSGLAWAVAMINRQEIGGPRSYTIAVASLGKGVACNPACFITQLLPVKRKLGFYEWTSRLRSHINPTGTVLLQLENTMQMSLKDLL
miR-21 FLuc: raises the signal of a miR-21 reporter | HeLa miR-21 FLuc reporter, luciferase, 48 h | AID 2288 | 340,000 tested, under 10 active | Potency, µM (titrated, usually from 38.3 µM), for the others: top-dose reporter change, positive = more light; active = well fitted rising curve with a large enough effect; inconclusive = small, poorly fitted or top-dose-only effect; inactive = no such curve, though single readings can be large or run the other way;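 also: % of control where 0% means no effect; miR-21 action dims this reporter so a rising signal means less miR-21 action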
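Using DMEM plus 10% FBS, HeLa miR-21-FLuc cells are incubated with test compounds (final up to about 40uM) for 48 hours; firefly luciferase signal is then imaged following reagent-mediated lysis.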
Numbers without * were called inactive; ? = inconclusive; . = not tested or not shown; & = joins results of further samples. Not all compounds are listed (hit frequency here may not be typical).

Value order: Rango-impB inh | Rango dissoc inh | GLA inh pH 4.5 | miR-21 FLuc
- Cc1nc(Cc2nnc(SCC(=O)N(C)c3ccccc3)o2)cs1
  -0.5% | 23% | . | .
- COc1ccc(CCNC2=NCCS2)cc1OC
  0.1% | 11% | -3 | -14%
- CCC(Sc1ncnc2c1nnn2-c1ccc(F)cc1)C(=O)OC (stereo unspecified)
  2.2% | 5% | 3 | -23%
- CCC(CC)c1nnc(NC(=O)CS(=O)(=O)Cc2ccccc2)s1
  -0.3% | -11% | . | .
- O=C(COc1ccc(Cl)cc1Cl)N(c1ccccn1)C1CCCCC1
  -0.5% | 1% | 4 | -21%
- CC1CCc2c(sc(NC(=O)c3ccccc3C(=O)O)c2C#N)C1 (stereo unspecified)
  ? | -17% | -1 | -23%
- CC(C)CC(NC(N)=O)C(=O)NCc1ccc(Cl)cc1 (stereo unspecified)
  1.7% | -5% | -10 | -2%
- O=S(=O)(c1ccc(NC(=S)N/N=C/c2c3ccccc3cc3ccccc23)cc1)N1CCOCC1
  ? | ? | 10 | ?
- O=C1CCCc2c1cc(C(=O)Nc1ccc(Cl)cn1)c(=O)n2-c1ccccc1
  3.2% | 8% | 4 | -3%
- COCCCN1C(=O)C(=O)/C(=C(/O)c2ccc(S(=O)(=O)N3CCOCC3)cc2)C1c1ccc(C)cc1 (stereo unspecified)
  3.3% | -7% | . | 0%
- COc1ccc(CCNC(=O)C2c3ccccc3C(=O)N2CCC(C)C)cc1OC (stereo unspecified)
  4.6% | 2% | . | -2%
- Cc1ccc(CN2CC(C(=O)N3CCN(S(=O)(=O)c4cc(C)ccc4C)CC3)CC2=O)cc1 (stereo unspecified)
  4.9% | 7% | . | .
- CCN(CC)c1nc(C#N)nc(N(CC)CC)n1
  -2.5% | 7% | 2 | -2%
- O=C1c2ccccc2C(Nc2cccc(C(F)(F)F)c2)N1Cc1ccco1 (stereo unspecified)
  -3.0% | 3% | -8 | 10%
- COCCn1c(C)cc(C(=O)COC(=O)CCN2C(=O)c3ccccc3C2=O)c1C
  0.1% | -23% | 5 | -10%
- O=C(COC(=O)c1ccc(Cl)c([N+](=O)[O-])c1)NC1CCCC1
  4.6% | 1% | . | 4%
- CCOC(=O)c1cccc(NC(=O)CCn2nc(C)c(S(=O)(=O)N3CCCCC3)c2C)c1
  -3.8% | -17% | . | 1%&7%
- CCCCn1c(=O)[nH]c2nc3cc(N)ccc3nc2c1=O
  ? | ? | -1 | -40%
- O=C(c1cccc(S(=O)(=O)NCc2ccc3c(c2)OCO3)c1)N1CCCC1
  0.1% | 3% | . | .
- CCOc1cc(NC(=S)NCCCN2CCOCC2)c(OCC)cc1NC(=O)c1cccc(F)c1
  6.0% | 16% | 6 | 1%
- Cc1ccc(S(=O)(=O)N2CCOCC2)cc1C(=O)N(C)CCOc1ccc(Cl)cc1
  6.5% | -3% | -3 | 24%
- O=C1/C(=C\c2ccc([N+](=O)[O-])cc2)CS(=O)(=O)C/C1=C/c1ccc([N+](=O)[O-])cc1
  -1.4% | -1% | . | .
- c1ccc(-c2nnc(N3CCOCC3)nc2-c2ccccc2)cc1
  -2.8% | 26% | 1 | -6%
- OCc1cc(CO)c(O)c(CCc2ccccc2)n1
  -1.0% | 1% | 1 | -1%
- O=[N+]([O-])CC(c1ccccc1)P(=O)(c1ccccc1)c1ccccc1 (stereo unspecified)
  -1.3% | 5% | . | -5%
- COc1ccc(-c2cc(=O)oc3cc(OCC(=O)N4CCOCC4)ccc23)cc1
  0.5% | ? | . | -1%
- Cc1ccc(NC(=S)N2CCOCC2)cc1
  4.1% | 12% | -4 | -14%
- O=C1c2ccccc2C(=O)N1Nc1ccc([N+](=O)[O-])cc1[N+](=O)[O-]
  2.5% | -13% | . | -1%
- CCOC(=O)c1sc2nc3n(c(=O)c2c1C)CCCCC3
  3.0% | -4% | -2 | -39%
- CC(C)C(=O)Nc1cccc(C(=O)Nc2ccccc2C(=O)O)c1
  0.5% | 0% | -2 | 5%
- CCCCCC(=O)N[C@@H](c1ccccc1)[C@@H](O)C(=O)O[C@H]1C[C@@]2(O)[C@@H](OC(=O)c3ccccc3)C3[C@](C)(C(=O)[C@H](OC(C)=O)C(=C1C)C2(C)C)[C@@H](O)C[C@H]1OC[C@@]31OC(C)=O (stereo partly specified)
  2.1% | -2% | . | 18%
- Brc1ccc(-c2nnc(-c3ccc4c(c3)OCO4)o2)o1
  0.2% | 0% | -4 | -51%
- Cc1cccc(CC(=O)NCCN2CCCCC2)c1
  4.6% | 20% | . | -3%
- Cc1cc(OCC(=O)N2CCN(c3cccc(Cl)c3)CC2)c2c(C)c(C)c(=O)oc2c1
  -0.8% | 7% | . | 3%
- O=S(=O)(/C=C/c1ccccc1)Nc1cccc(S(=O)(=O)NC2=NCCC2)c1
  0.0% | 17% | -29 | -3%
- CCOC(=O)c1c(NC(=O)COC)sc(C(C)=O)c1C
  2.3% | -2% | -8 | -13%
- CCCCn1nc2cc(C(=O)N(CC)c3ccc(OC)cc3)ccc2c1OCC
  5.2% | -5% | -1 | 0%
- O=C(CSc1ncccc1C(=O)O)Nc1ccc2c(c1)OCCO2
  2.6% | 11% | . | -7%
- CCc1nnc(NC(=O)CN2CC(C)OC(C)C2)s1 (stereo unspecified)
  0.1% | -7% | . | 7%
- Cc1nn(C(=O)c2ccc3c(c2)OCO3)c(N)c1-c1ccccc1
  -2.9% | 3% | 2 | -15%
- CC(C)(CNC(=O)c1ccccc1F)CNC(=O)c1ccccc1F
  -0.4% | -4% | . | .
- COc1ccc(C(=O)Nc2ccc(NC(=O)c3cccs3)cc2)cc1Cl
  6.4% | -2% | 1 | -8%
- Cc1ccc2c(c1)N(CC(=O)NC1CCCCCC1)C(=O)c1cccnc1O2
  -5.7% | 0% | . | -11%
- O=C(CCSCCC(=O)N1CCCC1)N1CCCC1
  0.1% | -1% | -1 | -6%
- Cc1ccc(S(=O)(=O)C2(C(=O)NCc3ccccc3Cl)CC2)cc1
  -1.4% | 2% | -1 | -2%
- O=C(COC(=O)C12CC3CC(CC(Br)(C3)C1)C2)Nc1c(F)cccc1F
  -5.2% | -1% | . | .
- Cn1cnnc1SCC(=O)N1c2ccccc2-c2c(ssc2=S)C1(C)C
  . | . | -11 | -3%
- O=C(NCc1cc(C(F)(F)F)ccc1Cl)c1cccc2c1C(=O)c1ccc(N3CCC(Cc4ccccc4)CC3)cc1S2(=O)=O
  ? | ? | . | .
- CC(=O)c1c(C)[nH]c(C(=O)CSc2nnc3ccccn23)c1C
  2.3% | -17% | -9 | -19%
- CC(=O)c1cccc(NC(=O)CSc2nnc(-c3ccncc3)o2)c1
  -0.4% | 10% | . | .
- CC(=O)c1ccccc1OC(=O)c1ccco1
  -2.6% | -8% | -1 | -6%
- Cc1ccc2nc(-c3ccc(SCC(=O)Nc4ccc5c(c4)OCCO5)nc3)[nH]c2c1
  -0.2% | 1% | 3 | -50%
- O=C1COc2ccc(S(=O)(=O)Nc3cccc(Cl)c3)cc2N1
  -1.0% | 17% | . | 3%
- Cc1ccc(NC(=O)CS(=O)CC(=O)N(CC(=O)NC(C)(C)C)c2cccc(C)c2C)cc1 (stereo unspecified)
  3.6% | -3% | . | 2%
- Cn1c(CCNS(=O)(=O)c2ccccc2)nc2cc([N+](=O)[O-])ccc21
  -2.9% | -10% | . | 1%
- CC(=O)NCCN=Cc1sc2ccccc2c1O
  ? | ? | 9 | -15%
- CN1CCN(CCC(=O)Nc2ccc(OCc3ccccc3)cc2)CC1
  -1.8% | -2% | -5 | -18%
- CCOC(=O)C(C)NC(=O)CCc1nnc2ccc(N3CCC(C)CC3)nn12 (stereo unspecified)
  -1.5% | -4% | . | -1%
- O=C(CSC(=S)N1CCOCC1)Nc1ccc(S(=O)(=O)Nc2ncccn2)cc1
  0.1% | 6% | . | -1%
- CC(C)(C)NC(=O)CSc1nnc(Cc2ccccc2)n1CC1CCCO1 (stereo unspecified)
  -3.8% | -16% | 3 | -2%

The list goes on:
Value order: Rango-impB inh | Rango dissoc inh | GLA inh pH 4.5 | miR-21 FLuc
- O=C(O)CCNS(=O)(=O)c1ccc(Oc2ccccc2)cc1
  -0.3% | 1% | 11 | -2%
- COc1ccccc1C(CNC(=O)C(CCSC)NC(=O)c1ccccc1Cl)N1CCCC1 (stereo unspecified)
  -3.8% | -12% | . | .
- CCOC(=O)CCC(NC(=O)CCCCCCCC(=O)NC(CCC(=O)OCC)C(=O)OCC)C(=O)OCC (stereo unspecified)
  3.8% | 15% | 4 | -9%
- CCCN(CCC)c1nc(Cl)nc(NCc2ccco2)n1
  -1.4% | 1% | -11 | 1%
- COc1ccc(NC(=O)N2CCN(C(=O)Nc3ccc(OC)cc3)CC2)cc1
  0.4% | ? | -9 | -5%
- CNC(=S)N(CCc1c(C)[nH]c2ccc(C)cc12)Cc1cccnc1
  -0.3% | -11% | . | 2%
- O=C(O)COc1ccccc1Cc1ccccc1
  2.8% | -1% | -6 | 0%
- COc1ccc(C(=O)Nc2ccc3ccccc3n2)c(OC)c1OC
  -1.6% | 2% | . | -31%
- Cc1cccnc1NC(=O)c1ccc2c(c1)NC(=O)C(C)S2 (stereo unspecified)
  4.6% | -9% | . | .
- O=C(CSc1nc(O)c(C2CCCCC2)c(=O)[nH]1)Nc1ccc(F)cc1
  -1.9% | 2% | . | -1%
- CCNC(=O)COC(=O)c1cc(S(=O)(=O)N2CCCc3ccccc32)ccc1Cl
  1.3% | 2% | -7 | 0%

Quoted at random: 2 compounds from above.
Value order: Rango-impB inh | Rango dissoc inh | GLA inh pH 4.5 | miR-21 FLuc
- CCNC(=O)COC(=O)c1cc(S(=O)(=O)N2CCCc3ccccc32)ccc1Cl
  1.3% | 2% | -7 | 0%
- CCCN(CCC)c1nc(Cl)nc(NCc2ccco2)n1
  -1.4% | 1% | -11 | 1%

Molecules shown so far containing an aryl thioether with sulfur outside any ring:
Value order: Rango-impB inh | Rango dissoc inh | GLA inh pH 4.5 | miR-21 FLuc
- Cc1nc(Cc2nnc(SCC(=O)N(C)c3ccccc3)o2)cs1
  -0.5% | 23% | . | .
- CCC(Sc1ncnc2c1nnn2-c1ccc(F)cc1)C(=O)OC (stereo unspecified)
  2.2% | 5% | 3 | -23%
- O=C(CSc1ncccc1C(=O)O)Nc1ccc2c(c1)OCCO2
  2.6% | 11% | . | -7%
- Cn1cnnc1SCC(=O)N1c2ccccc2-c2c(ssc2=S)C1(C)C
  . | . | -11 | -3%
- CC(=O)c1c(C)[nH]c(C(=O)CSc2nnc3ccccn23)c1C
  2.3% | -17% | -9 | -19%
- CC(=O)c1cccc(NC(=O)CSc2nnc(-c3ccncc3)o2)c1
  -0.4% | 10% | . | .
- Cc1ccc2nc(-c3ccc(SCC(=O)Nc4ccc5c(c4)OCCO5)nc3)[nH]c2c1
  -0.2% | 1% | 3 | -50%
- CC(C)(C)NC(=O)CSc1nnc(Cc2ccccc2)n1CC1CCCO1 (stereo unspecified)
  -3.8% | -16% | 3 | -2%
- O=C(CSc1nc(O)c(C2CCCCC2)c(=O)[nH]1)Nc1ccc(F)cc1
  -1.9% | 2% | . | -1%

Source: PubChem BioAssay
